Bioassay records from PubChem.
Rango-impB inh: qHTS Assay for Inhibitors of Rango (Ran-regulated importin-beta cargo) - Importin beta complex formation; Rango CFP/YFP FRET sensor + importin beta, 45 min; hit rate 0.031% among 340,000; Potency, µM (series often up to 92.2 µM), without a hit: at the top dose inhibition of complex formation; AID 540263, 2011; Importin subunit beta-1 (Homo sapiens), Q14974; active = rising FRET ratio curve, often small or poorly fitted; inconclusive = mostly compound fluorescence or quenching in the first reads; inactive = flat curves in all reads;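 further: potency means the concentration at half of the fitted maximal effect; 0% = DMSO wells and 100% = buffer wells lacking importin beta; nearly all actives have a fitted effect of over 15% in size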
Target sequence (Q14974 whole entry, looked up): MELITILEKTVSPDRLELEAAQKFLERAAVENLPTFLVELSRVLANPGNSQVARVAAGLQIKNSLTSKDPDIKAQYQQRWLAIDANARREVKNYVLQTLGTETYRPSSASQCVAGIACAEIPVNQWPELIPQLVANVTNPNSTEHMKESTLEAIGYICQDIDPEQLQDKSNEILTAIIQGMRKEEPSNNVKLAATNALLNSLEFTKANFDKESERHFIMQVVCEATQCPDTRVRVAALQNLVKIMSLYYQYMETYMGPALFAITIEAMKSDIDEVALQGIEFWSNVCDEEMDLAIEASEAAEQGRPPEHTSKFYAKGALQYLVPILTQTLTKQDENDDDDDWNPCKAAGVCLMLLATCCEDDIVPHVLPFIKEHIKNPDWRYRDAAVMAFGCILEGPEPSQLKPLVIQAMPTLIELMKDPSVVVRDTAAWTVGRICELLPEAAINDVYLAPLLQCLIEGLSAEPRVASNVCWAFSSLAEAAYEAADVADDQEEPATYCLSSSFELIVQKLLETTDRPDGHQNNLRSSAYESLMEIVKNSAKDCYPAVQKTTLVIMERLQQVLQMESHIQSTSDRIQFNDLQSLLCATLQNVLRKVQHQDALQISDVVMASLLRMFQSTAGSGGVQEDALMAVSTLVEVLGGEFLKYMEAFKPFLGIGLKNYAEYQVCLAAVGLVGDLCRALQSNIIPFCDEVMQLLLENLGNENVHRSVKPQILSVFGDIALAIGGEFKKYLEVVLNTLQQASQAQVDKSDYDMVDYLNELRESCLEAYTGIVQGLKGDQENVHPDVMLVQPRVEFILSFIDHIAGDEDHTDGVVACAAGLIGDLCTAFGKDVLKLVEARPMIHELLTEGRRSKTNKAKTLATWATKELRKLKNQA
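FRET biosensor (snurportin 1 IBB flanked by EYFP and cerulean), 50 nM, with compound 5 min, then 0.125 microM importin beta in PBS, 1 mM DTT, 0.02% Tween-20, 0.1% BSA. CFP/YFP ratio read after 45 min at room temperature; pre-read flags interference.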
GLA inh pH 4.5: qHTS Assay for Inhibitors of Human alpha-Galactosidase at pH 4.5 | purified enzyme, 4-MU-alpha-Gal fluorescence, pH 4.5 | Alpha-galactosidase A (Homo sapiens), P06280 | activity change, negative = inhibition, % at 105 µM | 230,000 tested, under 10 active; inconclusive = small, poorly fitted or top-dose-only inhibition, or a rising curve; inactive = flat fitted curve, though single readings scatter; no compound was filed as active;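 further: 0% = full activity with enzyme and -100% = basal without enzyme; dose as in the result columns while the protocol names 77 µM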
miR-21 reporter: qHTS Assay for Modulators of miRNAs and/orActivators of miR-21. 340,000 tested, under 10 active. Potency, µM (doses to about 38.3 µM), for the others: at the top dose reporter change, positive = more light. HeLa miR-21 FLuc reporter, luciferase, 48 h; active = well fitted rising curve with a large enough effect; inconclusive = small, poorly fitted or top-dose-only effect; inactive = no such curve, though single readings can be large or run the other way;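 further: % of control where 0% means no effect; miR-21 action dims this reporter so a rising signal means less miR-21 action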
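Luminescence from a firefly luciferase reporter carrying a miR-21 binding site downstream, stably expressed under a CMV promoter in HeLa cells that make miR-21 endogenously, reports miRNA modulation after 48 h compound exposure up to approximately 40uM final.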
Rango release inh: qHTS Assay for Inhibitors of RanGTP induced Rango (Ran-regulated importin-beta cargo) - Importin beta complex dissociation. Snurportin-1 (Homo sapiens) + GTP-binding nuclear protein Ran (Homo sapiens) + Importin …. Biochemical FRET Rango-importin beta, RanGTP-induced dissociation. Potency, µM (doses to about 46.1 µM), for the others: at the highest dose activity change, negative = inhibition. hit rate 0.071% among 340,000. AID 540253, 2011; active means falling FRET ratio curve, often poorly fitted, with flat reads before Ran was added; inconclusive means other falling curves, or compound fluorescence or quenching; inactive means flat or rising ratio curve;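 further: potency means the concentration at half of the fitted maximal effect; % of control where 0% means no effect; nearly all actives have a fitted effect of over 45% in size; -100% = wells without RanGTP and RCC1; the record marks most hits as doubtful in a second field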
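Two FRET readings bracket the reaction: one 5 min after compound meets Rango–importin beta, another 45 min after RanGTP-RCC1 (0.6 uM Ran, 0.2 uM RCC1, 2 mM GTP) is added. Only the second defines inhibition.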
* = called active by the depositor; ? = inconclusive; . = not tested or not shown. Not all compounds are listed; the hit share may differ from the screen's.

SMILES | Rango-impB inh | GLA inh pH 4.5 | miR-21 reporter | Rango release inh
O=C(O)C1CCCCC1C(=O)Nc1ccccc1Cl (stereo unspecified) | 2.6% | -17 | 0% | -12%
O=[n+]1cc(-c2ccc(F)cc2)n([O-])c2c1CCC2 | -0.3% | 1 | -8% | 1%
O=C(Nc1ccc(NC(=O)c2cccs2)cn1)c1ccco1 | 1.0% | 6 | 0% | 4%
O=C1C2C3CCC(C3)C2C(=O)N1CNc1ccc(F)cc1 (stereo unspecified) | -0.2% | 6 | -5% | 1%
Cc1cc(C)n(/N=C/c2cc([N+](=O)[O-])ccc2O)c(=O)c1 | 0.0% | -2 | 4% | -17%
Cc1ccc(C(=O)N2CCCC(c3ccccc3)=N2)cc1 | 1.8% | -3 | -23% | -15%
COc1ccc(CCNC(=O)NC23CC4CC(CC(C4)C2)C3)cc1 | -1.6% | -12 | -22% | 2%
O=C(O)CCC(=O)NCCc1cccc(Cl)c1 | -1.0% | 0 | -1% | 0%
Cc1cccc(N2CCN(C(=S)NCc3ccco3)CC2)c1C | 0.5% | -3 | -4% | -14%
CCN(C(=O)C(C)OC(=O)c1nn(-c2ccccc2C(F)(F)F)cc1O)c1ccccc1 (stereo unspecified) | -4.7% | . | . | 4%
COc1ccc(NC(=O)CSc2nc(C)c3c(c2C#N)CCCC3)cc1 | 0.9% | 8 | -9% | -1%
CCCOc1ccc(-c2nn(-c3ccccc3)cc2/C=C2\SC(N)=NC2=O)cc1C | 2.9% | -12 | 1% | -17%
C/C(=N/NS(=O)(=O)c1cccc([N+](=O)[O-])c1)c1ccncc1 | 0.5% | . | -5% | 10%
CC(=O)c1ccc(OCc2cc(C(=O)N(C)Cc3nc4c(C)cccc4[nH]3)no2)cc1 | -0.8% | . | 6% | -9%
CC(=O)N1CCc2cc(S(=O)(=O)CCC(=O)Nc3ccc(Cl)cc3F)ccc21 | 2.3% | . | -4% | -9%
COc1ccc2nc(NC(=O)CSc3nnc(-c4ccoc4C)n3C)sc2c1 | 1.5% | -1 | -19% | 18%
CNC(=O)NC(=O)CSc1nnc(C(F)(F)F)n1C | 1.4% | -6 | -2% | -15%
C/C(=N/OC(=O)CC(C)C)c1cc(-c2ccc(Cl)cc2)no1 | -1.3% | 5 | -40% | -10%
Cc1ccc(S(=O)(=O)N2CCOCC2)cc1NC(=O)CSc1nc(N)cc(N)n1 | 0.8% | . | . | 8%
CCOC(=O)C(C#N)(Cc1cc(OC)cc(OC)c1)Cc1cc(OC)cc(OC)c1 | 0.0% | . | . | -12%
O=c1[nH]c(-c2cccnc2)nc2ccccc12 | ? | -29 | -8% | -18%
Cc1ccc(-c2nn(CCC(=O)O)cc2CCC(=O)O)cc1 | 5.3% | 3 | -1% | 6%
CCO[C@H]1OC(C(N)=O)=C[C@@H](c2ccc(Br)cc2)[C@@H]1CCCO | -3.8% | -9 | 2% | 6%
Cc1ccc(C(=O)O/N=C(\N)Cc2cccc3ccccc23)cc1 | -3.2% | . | 1% | 8%
CC1CCN(C(=O)C(=O)c2cn(CC(=O)N3CCCCCC3)c3ccccc23)CC1 | 0.4% | . | 3% | -1%
COC(=O)CN(C#N)c1nc(SC)nc(N(C)C)n1 | -1.9% | -7 | -1% | -14%
C=CCN1C(=O)/C(=C2/Sc3ccccc3N2C)SC1=Nc1ccccc1C | -2.1% | 4 | -7% | 0%
CN1C(=S)SC(N(O)C(=O)Nc2ccc(Cl)c(Cl)c2)C1(C)C (stereo unspecified) | -0.1% | -7 | 10% | -19%
C=CCNc1nc(SC)nc2ccsc12 | -3.1% | -4 | -7% | 0%
CN(C)C(=O)CN1C(=O)C2CC=C(Cl)CC2C1=O (stereo unspecified) | -0.5% | 9 | -5% | 2%
O=C(CSc1nnc(NC(=O)c2cccc(F)c2)s1)NCC1CCCO1 (stereo unspecified) | 1.4% | . | -17% | -4%
CSc1cccc(NC(=O)N2CCCC(CNS(=O)(=O)Cc3ccccc3)C2)c1 (stereo unspecified) | -1.7% | -1 | -1% | 12%
NCC(=O)Nc1ccc(Cl)cc1C(=O)c1ccc[nH]1 | -1.4% | 5 | ? | -4%
COc1ccc2nc3sc(C(=O)NCCN4CCc5ccccc5C4)cc3cc2c1 | -2.0% | 1 | -31% | -9%
C=Cn1c(C(=O)O)ccc1-c1ccc(OC)cc1 | -3.2% | -1 | -23% | 3%
COc1cccc(NC2=C(C#N)C(=O)NC(c3cccc(OC)c3O)S2)c1 (stereo unspecified) | -0.1% | -1 | -7% | 3%
COC(=O)[C@@]12CCCN1[C@H](c1ccc(-c3ccccc3)c(OC)c1)[C@H]1C(=O)N(C)C(=O)[C@H]12 | -3.6% | . | . | -10%
Cn1ccsc1=NC(=O)c1ccccc1F | -0.4% | 3 | -19% | -1%
CN(Cc1cn[nH]c1-c1cc2ccccc2o1)CC1CCOCC1 | 3.9% | -9 | -4% | -1%
COc1ccc(C(=O)N2CCOC23CCN(c2ncccn2)CC3)cc1 | -0.3% | 7 | -2% | 2%
Cc1ccc(S(=O)(=O)N2CCN(Cc3ccccn3)CC2)cc1 | -1.7% | -3 | 0% | 7%
CC(C)COc1ccc(C(=O)NC(Cc2c[nH]c3ccccc23)C(=O)NN)cc1 (stereo unspecified) | 2.3% | 0 | 5% | 1%
Cc1cccc(C)c1OCCCN1CCOCC1 | -1.0% | . | -2% | 4%
O=C(COC(=O)CCc1nc2ccccc2s1)Nc1cccc(S(=O)(=O)N2CCOCC2)c1 | 1.3% | -4 | 0% | 1%
CCCSc1cc(=O)n(-c2ccccc2)nc1C(=O)OCC | -3.0% | 3 | -5% | 11%
C=CCNC(=O)c1ccc(-c2nc(-c3ccc(Cl)c(Cl)c3)cs2)cc1 | -2.5% | -15 | 1% | 3%
CC(=O)O[C@H]1[C@@H](O)[C@H](O)[C@H](Oc2c(O)c(C)c3c4c2[C@@H](C)CC[C@@H]4[C@@H](C)C[C@H]3C=C(C)C)O[C@H]1C | 2.7% | . | . | 1%
Cc1nn(Cc2ccccc2)c2sc(C(=O)N3CCN(Cc4ccc5c(c4)OCO5)CC3)cc12 | 2.3% | 5 | 0% | 7%
O=C(CCc1nnc2ccc(NCc3ccco3)nn12)Nc1cccc(F)c1 | -3.6% | . | -1% | 5%
CCCn1c(N)c(N(CCOC)C(=O)c2cc(Cl)nc3ccccc23)c(=O)[nH]c1=O | -2.3% | . | . | -8%

A second format for 6 compounds above.
Second line of a record: Rango-impB inh | GLA inh pH 4.5 | miR-21 reporter | Rango release inh
- CC(=O)N1CCc2cc(S(=O)(=O)CCC(=O)Nc3ccc(Cl)cc3F)ccc21
    2.3% | . | -4% | -9%
- COc1ccc2nc(NC(=O)CSc3nnc(-c4ccoc4C)n3C)sc2c1
    1.5% | -1 | -19% | 18%
- CNC(=O)NC(=O)CSc1nnc(C(F)(F)F)n1C
    1.4% | -6 | -2% | -15%
- C/C(=N/OC(=O)CC(C)C)c1cc(-c2ccc(Cl)cc2)no1
    -1.3% | 5 | -40% | -10%
- Cc1ccc(S(=O)(=O)N2CCOCC2)cc1NC(=O)CSc1nc(N)cc(N)n1
    0.8% | . | . | 8%
- CCOC(=O)C(C#N)(Cc1cc(OC)cc(OC)c1)Cc1cc(OC)cc(OC)c1
    0.0% | . | . | -12%

Next section
SMILES | Rango-impB inh | GLA inh pH 4.5 | miR-21 reporter | Rango release inh
CCOC(=O)c1ccc(NC(=O)c2cccc3c2C(=O)N(CC2CCCO2)C3)cc1 (stereo unspecified) | 4.1% | . | -7% | 15%
Cn1c(N)c(C(=O)COC(=O)/C=C/c2cccc(C(F)(F)F)c2)c(=O)n(C)c1=O | -1.7% | . | . | -2%
O=C(CN1CCN(C2CCCCC2)CC1)NCCC1=CCCCC1 | ? | -5 | 2% | -11%
COC(=O)c1sccc1NC(=O)c1sccc1C | -3.5% | 4 | -2% | 11%
Cc1cc(Nc2ccc(C(=O)N3CCCCC3)cc2)c2cccc(C)c2n1 | -2.5% | . | -3% | -9%
CCN(CC)S(=O)(=O)c1cc(NC(=O)c2cc(-c3ccccn3)nc3ccccc23)ccc1C | 0.2% | -7 | 21% | -11%
COc1ccc(S(=O)(=O)Nc2ccccc2C(=O)NCc2cccnc2)cc1C | ? | . | -2% | -7%
CC(C)c1ccc(N=c2c([N+](=O)[O-])nn(-c3ccc4c(c3)OCCO4)n2O)cc1 | 4.2% | -5 | 0% | -4%
COC(C[C@H](O)C[C@H](O)[C@@H](C)OCc1ccccc1)OC | -3.2% | . | . | 0%
COc1ccc(NC(=O)c2ccccc2)c([N+](=O)[O-])c1 | 13% | -3 | -36% | 7%
CCOc1ccc(NC(=O)C2=NN(c3ccccc3)C(=O)CC2)cc1S(=O)(=O)N1CCCCC1 | 3.8% | . | . | -13%
CC(CCN1CCN(c2ccc(F)cc2)CC1)c1ccccc1 (stereo unspecified) | -1.4% | . | 4% | -5%
O=C(Nc1ccc(O)cc1)c1cc2n(n1)C(C(F)(F)F)CC(c1ccco1)N2 (stereo unspecified) | -1.0% | 3 | 16% | 0%
Cc1ccccc1CNc1ccc(C(CC(N)=O)NC(=O)c2ccc(Br)cc2)cc1[N+](=O)[O-] (stereo unspecified) | 3.3% | -2 | -3% | -10%
COc1cccc(NC(=O)NCc2ccccc2Cl)c1 | 3.1% | . | . | -1%
CCN1CCN(S(=O)(=O)c2ccc(Oc3ccccc3OC)cc2)CC1 | -4.8% | -9 | 2% | -12%
CCNS(=O)(=O)c1ccc(NC(=O)Nc2cccc(OC)c2)cc1 | 6.5% | 15 | -13% | 7%
COc1cccc([C@@H]2CC=C(C(=O)O)[C@H](c3ccccc3)N2S(=O)(=O)c2ccc(C)cc2)c1 | 2.7% | . | . | -24%
Cc1cc(C)nc(N2CCCC(C(=O)NC3CCCC3)C2)n1 (stereo unspecified) | -2.8% | 4 | -3% | 20%
Cc1ccc2nc(C(Cl)(Cl)Cl)nc(N/N=C/c3ccncc3)c2c1 | 3.7% | 1 | -1% | 2%
CCOC(=O)c1c(C)[nH]c(NC(=O)N2CCOCC2)c1C | -1.1% | 2 | -1% | 0%
COc1ccc(/C=C2\SC(N)=NC2=O)cc1Br | 1.8% | . | -21% | 11%
O=C(NC(=S)N1CCCCC1)c1csc([N+](=O)[O-])c1 | 0.0% | 4 | -15% | 1%
COC(=O)Cc1c(C)c2ccc(OC(=O)c3ccco3)cc2oc1=O | ? | ? | -20% | ?
Cc1nccc(-c2ccc(-n3c(C)ccc3C)cc2)n1 | 5.0% | 8 | -7% | -13%
O=C(NCCC1=CCCCC1)c1ccc(Br)o1 | 0.4% | -11 | -40% | 11%
CCCCSc1nc2c([nH]1)c(=O)n(C)c(=S)n2C | -7.5% | . | . | 8%
O=C(CCCOc1ccc(Cl)cc1Cl)Nc1ccncc1 | -0.1% | -14 | 21% | -10%
Cc1ccc(C(=O)Nc2sc3c(c2C#N)CCCCC3)cc1C | ? | -1 | -57% | -24%
O=C(Nc1ccccc1)C1=C[C@H](C2CCCCC2)C[C@H](OCc2ccc(CO)cc2)O1 | -11% | -3 | -33% | 2%
CCCC(=O)NCCSC | ? | 3 | -5% | 0%
NS(=O)(=O)c1ccc(CCNC(=O)CCCn2c(SCC(=O)N3CCCC3)nc3ccsc3c2=O)cc1 | 5.2% | -3 | -1% | -1%
Cc1ccc(S(=O)(=O)N/N=C(\c2ccccc2)c2cccnc2)cc1 | -2.5% | -3 | 0% | -6%
COc1cccc(CNC(=O)CCCNS(=O)(=O)c2cccs2)c1 | ? | ? | -5% | 6%
COC(=O)CNC(=O)C1Cc2ccccc2CN1S(=O)(=O)c1cccs1 (stereo unspecified) | -4.6% | -2 | -1% | 36%
Cc1cccc2[nH]c(CCNC(=O)C3CCC(=O)N(CCc4cccc(F)c4)C3)nc12 (stereo unspecified) | -0.7% | . | 1% | -1%
